Compound activity from PubChem BioAssay.
Vif A3G: inhibitors of Vif binding to APOBEC3G peptide, primary screen, biochemical, TR-FRET, GST-Vif 1-94, biotin-A3G peptide, dose response retest (AID 1117319). TR-FRET GST-Vif / biotin-A3G peptide binding; higher % means a stronger effect; test concentration not given here; strong numbers were not always called active. inhibition, %; hits with a dose series show IC50 in µM. hit rate 0.57% among 260,000;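 active means above the screen mean plus three standard deviations and confirmed in dose response; inconclusive means results disagree or hit not tested in dose response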;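 further: Vif residues 1-94 fused to GST binding biotinylated APOBEC3G peptide 110-148; 0% = full assay without inhibitor and 100% = GST in place of GST-Vif; retest series ran down from 100 µM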
E coli growth: E. coli growth inhibition, primary screen, OD600 | Escherichia coli growth, 23 h; hits give low values | OD600 absorbance (no concentration beside the values) | hit rate 0.21% among 330,000 | AID 1053175, 2014;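 active means OD600 absorbance below the run mean of sample wells minus 3.6 SD, in any replicate, cut at about 0.56 in these data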;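 further: stock transfer was 300 nL into about 60 µL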
ALR H2O2 inh: inhibitors of human ALR sulfhydryl oxidase, primary screen, biochemical, H2O2 detection, HRP-luminol luminescence, single point. FAD-linked sulfhydryl oxidase ALR (Homo sapiens), P55789. purified ALR, DTT oxidation. inhibition, % (concentration not given with the values). hit rate 3.8% among 290,000;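 active means mean and each replicate at 75% or more; inconclusive means only one of the two met; inactive means neither met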;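 further: stock transfer was 7.5 nL into about 7.5 µL; 0% = neutral wells and 100% = wells with inactivated enzyme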
Target sequence (P55789 whole entry, looked up): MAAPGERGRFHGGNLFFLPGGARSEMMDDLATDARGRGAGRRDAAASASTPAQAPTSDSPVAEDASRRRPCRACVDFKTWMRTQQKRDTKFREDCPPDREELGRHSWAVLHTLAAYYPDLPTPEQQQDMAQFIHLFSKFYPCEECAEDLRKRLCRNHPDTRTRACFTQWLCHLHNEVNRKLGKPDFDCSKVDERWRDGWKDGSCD
HNF4A DNA FP: change in binding of human HNF4A to DNA, primary screen, biochemical, fluorescence polarization, FITC-DNA | AID 1224865, 2016 | 1 h | hit rate 0.3% among 360,000 | activity change, % at 10 µM | Hepatocyte nuclear factor 4-alpha (Homo sapiens), P41235; in the data active means activity change above about 30%, passing the limit was not always enough;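 further: controls were the assay level and a saturating level of protein; the project sought stronger binding though the title names inhibitors; some compounds called inactive have numbers as strong as hits; positive values seem to mean higher polarization but the record does not say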
Ecoli rRNA inh: reduced GFP signal of wild-type E. coli, primary screen, bacterial rRNA inhibitor project, GFP/RFP fluorescence, OD600, single point; hit rate 1.6% among 350,000; GFP signal change (wild-type ribosome), % (no concentration beside the values); E. coli WT GFP vs humanized-ribosome RFP mutants, 24 h; hits give low values; DMSO median 0, no signal -100; AID 720706, 2013;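 active means significant combined selectivity score with lowered wild-type GFP, culture density cut under 30%, mutant RFP and density less affected; inactive means any of these conditions unmet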; further: one replicate is shown; some compounds called inactive have numbers as strong as hits
MLL AF4-AF9 inh: inhibitors of AF4 peptide binding to AF9, primary screen, biochemical, AlphaScreen, biotin-AF4 peptide, FLAG-AF9, single point. hit rate 0.47% among 350,000. Protein AF-9 (Homo sapiens), P42568. inhibition, % at 10 µM. AID 651704, 2012;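 active means every replicate reaching a set inhibition limit, whatever the replicate mean, cut at about 25% in these data; inconclusive means mean inhibition reaches that limit but some replicates miss it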;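 further: 0% = plate neutral control median and 100% = total signal loss; the record names both 10 and 1 µM as test concentration; the first replicate is given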
Target sequence (P42568 whole entry, looked up): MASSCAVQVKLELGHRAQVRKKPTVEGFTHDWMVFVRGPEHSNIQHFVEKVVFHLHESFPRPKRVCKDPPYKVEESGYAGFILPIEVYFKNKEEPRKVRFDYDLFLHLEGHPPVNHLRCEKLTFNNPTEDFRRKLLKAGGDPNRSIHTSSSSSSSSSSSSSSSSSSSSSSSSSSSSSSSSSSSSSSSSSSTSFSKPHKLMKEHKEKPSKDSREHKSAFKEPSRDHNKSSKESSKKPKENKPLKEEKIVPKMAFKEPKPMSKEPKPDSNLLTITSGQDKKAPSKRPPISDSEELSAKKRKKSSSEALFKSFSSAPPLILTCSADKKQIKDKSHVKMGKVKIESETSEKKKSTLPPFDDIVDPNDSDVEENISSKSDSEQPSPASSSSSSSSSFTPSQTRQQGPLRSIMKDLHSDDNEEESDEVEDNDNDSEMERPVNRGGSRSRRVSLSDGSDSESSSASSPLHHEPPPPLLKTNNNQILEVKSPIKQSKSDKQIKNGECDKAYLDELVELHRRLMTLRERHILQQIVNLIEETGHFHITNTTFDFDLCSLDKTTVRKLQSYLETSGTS
FGF22 binding: binders of human FGF22 protein, primary screen, FGF22 synaptogenesis inhibitor project, biophysical, thermal shift, single point; Fibroblast growth factor 22 (Homo sapiens), Q9HCT0; recombinant FGF22 thermal shift, SYPRO orange fluorescence; percent of sucrose octasulfate shift, DMSO zero; calls only at 9.99 µM; hit rate 1.5% among 340,000;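 active means melting point raised past a set limit in the mean and every replicate; inconclusive means no clear call; three in four hits are not shown here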
Target sequence (Q9HCT0 whole entry, looked up): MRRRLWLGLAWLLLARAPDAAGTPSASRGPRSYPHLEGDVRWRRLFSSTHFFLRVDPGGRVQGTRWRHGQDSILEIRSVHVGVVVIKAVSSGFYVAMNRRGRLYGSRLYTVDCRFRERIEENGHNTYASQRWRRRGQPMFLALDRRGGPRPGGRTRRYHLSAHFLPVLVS
Ecoli rRNA inh OD600: further read-out of Ecoli rRNA inh, marked with its call; OD600 change, %; measured here: OD600 growth;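 optical density of the mix in the first replicate; 0 = DMSO median and -100 = no signal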
Ecoli rRNA inh RFP: further read-out of Ecoli rRNA inh, marked with its call; RFP signal change, %; measured here: RFP humanized mutant strains;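 first replicate; 0 = DMSO median and -100 = no signal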
* hit, by the source's call. An excerpt (hit frequency here may not be typical).

What do the screens show for `Cc1nnc(-c2cccc(Br)c2)c2cn(-c3ccc(Br)cc3)nc12`?
Vif A3G: -36%; E coli growth: 0.67; ALR H2O2 inh: -12; HNF4A DNA FP: 63*

Results for Cc1[nH]n(-c2ccccc2)c(=O)c1N=Nc1ccccc1 ?
Vif A3G: -6%; E coli growth: 0.66; ALR H2O2 inh: 17; HNF4A DNA FP: 0.5; Ecoli rRNA inh: 11; MLL AF4-AF9 inh: 4.9; FGF22 binding: inactive; Ecoli rRNA inh OD600: 17; Ecoli rRNA inh RFP: 2.5

What do the screens show for `C[C@@H]1CN([C@H](C)CO)C(=O)c2cc(NC(=O)Cc3ccccc3)ccc2O[C@H]1CN(C)CC1CCCCC1`?
Ecoli rRNA inh: 3; MLL AF4-AF9 inh: -1.7; FGF22 binding: inactive; Ecoli rRNA inh OD600: -2; Ecoli rRNA inh RFP: 0.4

What do the screens show for `Cc1ccc(S(=O)(=O)N2C[C@H]3C(=O)C[C@@H](c4ccccc4)N(S(=O)(=O)c4ccc(C)cc4)[C@H]3C[C@H]2c2cccs2)cc1`?
HNF4A DNA FP: 0.8; Ecoli rRNA inh: 1; MLL AF4-AF9 inh: -1.9; FGF22 binding: inactive; Ecoli rRNA inh OD600: 15; Ecoli rRNA inh RFP: -3.5

Results for O=C(CSc1ccc(-c2ccccn2)nn1)N1CCCC1 ?
Vif A3G: 6%; E coli growth: 0.69; ALR H2O2 inh: -4; HNF4A DNA FP: -0.9; Ecoli rRNA inh: 10; MLL AF4-AF9 inh: -3.8; FGF22 binding: inactive; Ecoli rRNA inh OD600: 13; Ecoli rRNA inh RFP: -2.9

What do the screens show for `NC1=NC(=O)C(Cc2cccc(Cl)c2)S1` (stereo not drawn)?
Vif A3G: -6%; E coli growth: 0.63; ALR H2O2 inh: 1; HNF4A DNA FP: 0.7

How did Nn1c(-c2ccccc2)cc(-c2ccccc2)cc1=O do in these assays?
E coli growth: 0.64; ALR H2O2 inh: -2; HNF4A DNA FP: -1.7; Ecoli rRNA inh: 8; MLL AF4-AF9 inh: 1.4; FGF22 binding: inactive; Ecoli rRNA inh OD600: 6; Ecoli rRNA inh RFP: 0.5

What do the screens show for `Cc1cc(Nc2cccc(Cl)c2)n2ncnc2n1`?
Vif A3G: -6%; E coli growth: 0.68; ALR H2O2 inh: -16; HNF4A DNA FP: 2.9; Ecoli rRNA inh: 1; MLL AF4-AF9 inh: 2.6; FGF22 binding: inactive; Ecoli rRNA inh OD600: -7; Ecoli rRNA inh RFP: -0.5

What do the screens show for `CCOC(CC(=O)NNC(=O)c1c(-c2c(Cl)cccc2Cl)noc1C)OCC`?
E coli growth: 0.66; ALR H2O2 inh: -13; HNF4A DNA FP: 0.1; Ecoli rRNA inh: 10; MLL AF4-AF9 inh: -1.6; FGF22 binding: inactive; Ecoli rRNA inh OD600: 7; Ecoli rRNA inh RFP: 3.1

How did C[C@H]1CN([C@@H](C)CO)C(=O)c2ccccc2-c2ccccc2CO[C@@H]1CN(C)Cc1cccc(C(=O)O)c1 do in these assays?
Ecoli rRNA inh: 1; MLL AF4-AF9 inh: -2.5; FGF22 binding: inactive; Ecoli rRNA inh OD600: -2; Ecoli rRNA inh RFP: -1.5

Results for Cc1cccc(CSc2nnc(NC(=O)CSc3nnc(C)s3)s2)c1 ?
Vif A3G: -6%; E coli growth: 0.78; ALR H2O2 inh: -5; HNF4A DNA FP: -0.1

What do the screens show for `Cc1ccccc1CN1[C@@H](C)[C@H](c2ccccc2)Oc2cccc(N3CCCC3)c2S1(=O)=O`?
Ecoli rRNA inh: 7; MLL AF4-AF9 inh: 0.0; FGF22 binding: inactive; Ecoli rRNA inh OD600: -1; Ecoli rRNA inh RFP: -1.5

Reprinted from the part before: 2 entries, followed by the next part.
Results for Cc1cccc(CSc2nnc(NC(=O)CSc3nnc(C)s3)s2)c1 ?
Vif A3G: -6%; E coli growth: 0.78; ALR H2O2 inh: -5; HNF4A DNA FP: -0.1

What do the screens show for `Cc1ccccc1CN1[C@@H](C)[C@H](c2ccccc2)Oc2cccc(N3CCCC3)c2S1(=O)=O`?
Ecoli rRNA inh: 7; MLL AF4-AF9 inh: 0.0; FGF22 binding: inactive; Ecoli rRNA inh OD600: -1; Ecoli rRNA inh RFP: -1.5

What do the screens show for `NC(=S)NNC(=O)c1cccc(Br)c1`?
Vif A3G: 11%; E coli growth: 0.6; ALR H2O2 inh: 25

Results for c1ccc(Nc2scc(-c3ccccc3)[n+]2Cc2ccco2)cc1 ?
Vif A3G: 30%; E coli growth: 0.69; HNF4A DNA FP: -4.3; Ecoli rRNA inh: 9; MLL AF4-AF9 inh: 0.8; FGF22 binding: inactive; Ecoli rRNA inh OD600: 0; Ecoli rRNA inh RFP: -1.5

What do the screens show for `COC(=O)C1=Cc2cc(OC)cc([N+](=O)[O-])c2OC1N1CCOCC1` (stereo not drawn)?
E coli growth: 0.67; ALR H2O2 inh: -35; HNF4A DNA FP: -0.9; Ecoli rRNA inh: -2; MLL AF4-AF9 inh: -0.6; FGF22 binding: inactive; Ecoli rRNA inh OD600: -3; Ecoli rRNA inh RFP: -4.3

How did C[C@@H]1CN([C@@H](C)CO)C(=O)c2cc(NC(=O)CCN3CCOCC3)ccc2O[C@H]1CN(C)Cc1ccncc1 do in these assays?
Ecoli rRNA inh: 2; MLL AF4-AF9 inh: -1.7; FGF22 binding: inactive; Ecoli rRNA inh OD600: 1; Ecoli rRNA inh RFP: 0.0

Results for O=C(CCN1CCCCC1)NCC[C@H]1CC[C@@H](NS(=O)(=O)c2cccc(Cl)c2)[C@@H](CO)O1 ?
Ecoli rRNA inh: 2; MLL AF4-AF9 inh: -0.6; FGF22 binding: inactive; Ecoli rRNA inh OD600: 10; Ecoli rRNA inh RFP: 1.4

What do the screens show for `O=Cc1cccc(Oc2ccc([N+](=O)[O-])cc2[N+](=O)[O-])c1`?
E coli growth: 0.66; ALR H2O2 inh: -36; HNF4A DNA FP: -0.2; Ecoli rRNA inh: 20; MLL AF4-AF9 inh: 4.2; FGF22 binding: inactive; Ecoli rRNA inh OD600: 11; Ecoli rRNA inh RFP: 0.4

What do the screens show for `C[C@H](CO)N1C[C@H](C)[C@@H](CN(C)Cc2ccc(Cl)c(Cl)c2)Oc2c(NC(=O)CCC(F)(F)F)cccc2C1=O`?
ALR H2O2 inh: -2; HNF4A DNA FP: 0.3; Ecoli rRNA inh: 6; MLL AF4-AF9 inh: 1.4; FGF22 binding: inactive; Ecoli rRNA inh OD600: 1; Ecoli rRNA inh RFP: -0.9

What do the screens show for `O=C(C[C@H]1CC[C@@H]2[C@H](COC[C@H](O)CN2C(=O)c2ccc3c(c2)OCO3)O1)NC1CCC1`?
Ecoli rRNA inh: 1; MLL AF4-AF9 inh: -1.3; FGF22 binding: inactive; Ecoli rRNA inh OD600: 13; Ecoli rRNA inh RFP: 0.4

What do the screens show for `COc1ccc(CCNC(=O)c2c(Cl)ccc(Cl)c2OC)cc1OC`?
Vif A3G: 2%; ALR H2O2 inh: 6; HNF4A DNA FP: 0.7; Ecoli rRNA inh: -2; MLL AF4-AF9 inh: 0.5; FGF22 binding: inactive; Ecoli rRNA inh OD600: -5; Ecoli rRNA inh RFP: 0.0

Results for Cc1ccc(C(=O)CN(CCCC(N)=O)C(=O)c2ccncc2)cc1 ?
E coli growth: 0.72; ALR H2O2 inh: -2; HNF4A DNA FP: 1.4; Ecoli rRNA inh: 5; MLL AF4-AF9 inh: -1.4; FGF22 binding: inactive; Ecoli rRNA inh OD600: 14; Ecoli rRNA inh RFP: 3.4

Results for Cc1noc(C)c1NC(=O)Nc1ccc2c(c1)C(=O)N([C@@H](C)CO)C[C@H](C)[C@H](CN(C)C(=O)Nc1ccc3c(c1)OCO3)OCCCC[C@H](C)O2 ?
Ecoli rRNA inh: 2; MLL AF4-AF9 inh: 2.2; FGF22 binding: inactive; Ecoli rRNA inh OD600: -4; Ecoli rRNA inh RFP: -0.4

What do the screens show for `C=CCn1c(SCC(=O)Nc2ccc(Br)cc2)nc(O)cc1=O`?
Vif A3G: 11%; HNF4A DNA FP: 7.9; MLL AF4-AF9 inh: -4.3; FGF22 binding: inactive

How did COC(=O)CSc1nc(Cc2ccccc2)nc2ccccc12 do in these assays?
Vif A3G: 6%; E coli growth: 0.67; ALR H2O2 inh: inconclusive; HNF4A DNA FP: 0.7; Ecoli rRNA inh: -30; MLL AF4-AF9 inh: -1.9; FGF22 binding: inactive; Ecoli rRNA inh OD600: -40; Ecoli rRNA inh RFP: -6.3

What do the screens show for `Cc1ccc(S(=O)(=O)N(C)C[C@@H]2OCCCC[C@@H](C)Oc3ccc(NC(=O)Nc4ccccc4)cc3C(=O)N([C@@H](C)CO)C[C@@H]2C)cc1`?
Ecoli rRNA inh: 2; MLL AF4-AF9 inh: 1.5; FGF22 binding: inactive; Ecoli rRNA inh OD600: 8; Ecoli rRNA inh RFP: -0.7

Results for CCCNC(=O)[C@@H]1[C@@H](CO)[C@@H]2Cn3c(ccc(-c4ccc(F)cc4)c3=O)[C@H]1N2Cc1ccccc1F ?
Ecoli rRNA inh: -4; MLL AF4-AF9 inh: 1.2; FGF22 binding: inactive; Ecoli rRNA inh OD600: -14; Ecoli rRNA inh RFP: 0.6

What do the screens show for `Cc1coc2c(C)c3oc(=O)c(CC(=O)N[C@@H](CC(C)C)C(=O)O)c(C)c3cc12`?
Vif A3G: -3%; E coli growth: 0.62; ALR H2O2 inh: 11; HNF4A DNA FP: 2.4; Ecoli rRNA inh: -12; MLL AF4-AF9 inh: -3.7; FGF22 binding: inactive; Ecoli rRNA inh OD600: -2; Ecoli rRNA inh RFP: 1.6

What do the screens show for `O=C(NCc1ccco1)c1c(O)c2cccc3c2n(c1=O)CCC3`?
Vif A3G: 2%; E coli growth: 0.73; ALR H2O2 inh: 9; HNF4A DNA FP: -0.1

How did CO[C@H]1CN(C)C(=O)c2cc(NC(=O)NC(C)C)ccc2OC[C@@H](C)N(C(=O)CC2CC2)C[C@H]1C do in these assays?
Ecoli rRNA inh: 2; MLL AF4-AF9 inh: 1.7; FGF22 binding: inactive; Ecoli rRNA inh OD600: 1; Ecoli rRNA inh RFP: -3.9

How did CCOC(=O)N1CCN(C(=O)c2ccc3c(c2)sc2nc(-c4ccc(OC)cc4)cn23)CC1 do in these assays?
Vif A3G: 19%; E coli growth: 0.71; ALR H2O2 inh: -4; HNF4A DNA FP: 1.2; Ecoli rRNA inh: 1; Ecoli rRNA inh OD600: 1; Ecoli rRNA inh RFP: -1.8

How did O=C(c1cccc(S(=O)(=O)N2CCCCC2)c1)N1CCOCC1 do in these assays?
Vif A3G: 8%; E coli growth: 0.72; ALR H2O2 inh: 6; HNF4A DNA FP: -1.8

How did CCCNC(=O)[C@H](Cc1c[nH]c2ccccc12)NC(=O)c1ccccc1Cl do in these assays?
Vif A3G: 1%; E coli growth: 0.68; ALR H2O2 inh: -2; HNF4A DNA FP: 5.1

What do the screens show for `Cc1csc(NC(=O)CSc2ccc(-c3ccccc3)nn2)n1`?
Vif A3G: 5%; ALR H2O2 inh: 45; HNF4A DNA FP: -0.5
